# SMN2 splice up = SMN2 splice variant enhancement. HEK293 SMN2-luciferase splicing reporter, luminescence, 30-36 h. Potency, µM (series often up to 46.1 µM), inactives show top-dose activity change, positive = activation, usual class: activators. actives 2.8% (n = 210,000). AID 1458; also: % of control where 0% means no effect; nearly all actives have a fitted effect of over 55% in size
#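 HEK293 cells carry an SMN2 minigene-luciferase reporter in which exon 7 inclusion puts luciferase in frame. Cells were seeded at 2000 cells/well, attached for 10-12 hours, then exposed to compounds for 30-36 hours at 37C before ONE-Glo luminescence.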
# GLA spleen mod = inhibitors or activators of human alpha-galactosidase in spleen homogenate; P06280; human spleen homogenate, 4MU-alpha-Gal fluorescence, 40 min; Potency, µM (highest dose often 80 µM), for inactives: at the top dose activity change, negative = inhibition, usual class: inhibitors; actives 0.008% (n = 240,000);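 also: 0% = enzyme with vehicle and -100% = no enzyme basal signal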
# Target sequence (P06280 32-429 limits assumed): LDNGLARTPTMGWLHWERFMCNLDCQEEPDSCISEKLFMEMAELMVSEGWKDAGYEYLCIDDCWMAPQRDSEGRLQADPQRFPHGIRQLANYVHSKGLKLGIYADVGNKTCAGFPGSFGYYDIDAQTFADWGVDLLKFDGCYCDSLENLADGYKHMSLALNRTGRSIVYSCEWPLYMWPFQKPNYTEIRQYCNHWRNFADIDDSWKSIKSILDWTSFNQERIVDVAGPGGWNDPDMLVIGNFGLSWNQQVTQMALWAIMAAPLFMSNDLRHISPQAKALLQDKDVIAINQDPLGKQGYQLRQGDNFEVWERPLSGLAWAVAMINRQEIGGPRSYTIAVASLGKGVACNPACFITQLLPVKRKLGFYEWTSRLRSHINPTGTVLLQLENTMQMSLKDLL
#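 qHTS titration in buffer at pH 5.0. Alpha-galactosidase activity in spleen homogenate was measured via 4-methylumbelliferone release from 1 mM fluorogenic substrate after 40 min at 37C and a pH 10 stop. AC50 came from Hill fits of control-normalized data.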
# JMJD2E inh = JMJD2E (human) inhibition. B2RXH2. JMJD2E catalytic domain, FDH-coupled NADH fluorescence (FDH is formaldehyde dehydrogenase). Potency, µM (top dose mostly 57.1 µM), for inactives: at the top dose activity change, negative = inhibition, actives largely listed as inhibitors. actives 1.6% (n = 230,000); active = well fitted inhibition curve with a large enough effect, not every such curve was filed as active; inconclusive = small, poorly fitted or top-dose-only effect, or another doubt; inactive = no such curve, though single readings can be large or run the other way;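 also: 0% = wells with enzyme and -100% = buffer wells without enzyme; nearly all actives have a fitted effect of over 50% in size; many of its hits are not listed in these tables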
# Target sequence (B2RXH2 1-337 limits assumed): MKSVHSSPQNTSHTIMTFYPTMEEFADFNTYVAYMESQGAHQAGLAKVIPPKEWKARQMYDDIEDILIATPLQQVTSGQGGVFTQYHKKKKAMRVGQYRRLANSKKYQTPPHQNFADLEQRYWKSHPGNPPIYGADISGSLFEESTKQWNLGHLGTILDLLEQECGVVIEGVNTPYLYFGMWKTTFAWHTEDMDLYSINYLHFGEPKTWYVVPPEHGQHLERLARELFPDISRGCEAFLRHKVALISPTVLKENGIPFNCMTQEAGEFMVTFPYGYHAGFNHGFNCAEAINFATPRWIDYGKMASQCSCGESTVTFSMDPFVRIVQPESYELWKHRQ
# GoLoco inh red = blocks human Gai1 binding to RGS12 GoLoco peptide, red readout | P63096 | Gai1:RGS12 GoLoco peptide FP, rhodamine, 10 min | Potency, µM (top dose mostly 61.6 µM), without a hit: at the top dose activity, negative = inhibition, most hits filed as inhibitors | actives 0.44% (n = 230,000); active = well fitted inhibition curve with a large enough effect, not every such curve was filed as active; inactive = no such curve, though single readings can be large or run the other way; also: % is scaled to controls: 0 for no effect and ±100 for the full control effect; nearly all actives have a fitted effect of over 30% in size; many of its hits are not listed in these tables
# Target sequence (P63096 whole entry, looked up): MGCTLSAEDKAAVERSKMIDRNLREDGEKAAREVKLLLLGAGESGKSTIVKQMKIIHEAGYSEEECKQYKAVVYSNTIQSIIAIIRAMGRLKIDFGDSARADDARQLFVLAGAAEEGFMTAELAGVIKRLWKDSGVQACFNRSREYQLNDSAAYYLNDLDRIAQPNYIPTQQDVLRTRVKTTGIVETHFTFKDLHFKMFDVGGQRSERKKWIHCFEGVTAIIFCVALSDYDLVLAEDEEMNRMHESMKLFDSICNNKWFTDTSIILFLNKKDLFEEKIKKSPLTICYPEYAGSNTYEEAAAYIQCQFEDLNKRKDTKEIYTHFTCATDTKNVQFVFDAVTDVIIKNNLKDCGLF
# GAA inhib = alpha-glucosidase (human) inhibition; Potency, µM (titrated, usually from 76.9 µM), inactives show at the highest dose activity change, negative = inhibition, most hits filed as inhibitors; purified human GAA, 4-MU-alpha-glucoside fluorescence; P10253; actives 0.005% (n = 200,000);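 also: plate controls were uninhibited enzyme wells for no effect and no-enzyme background for full effect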
#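 Endpoint fluorogenic read: 20 min room-temperature reaction of 4 nM human alpha-glucosidase with 400 uM 4-methylumbelliferyl-alpha-D-pyranoside, pH 5.0, quenched with 1M NaOH/1M glycine pH 10. AC50 from Hill modeling.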
# GAA glycogen = alters human alpha-glucosidase cleavage of glycogen. P10253. recombinant GAA, glycogen substrate, Amplex Red glucose oxidase fluorescence. Potency, µM (titrated, usually from 76.4 µM), without a hit: at the highest dose activity change, negative = inhibition, hits mostly inhibitors. actives 0.38% (n = 300,000);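 also: 0% = full enzyme reaction and -100% = no-enzyme basal signal; the screen sought inhibitors and activators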
#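 qHTS, 1536-well; enzyme 4 nM final; cpd up to 77 uM; substrate bovine liver glycogen 30 ug; 50 mM citrate/phosphate pH 5.0, 0.01% Tween-20; 37 C, 40 min; Amplex Red detection 45 min RT; Hill fit → AC50.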
# GAA spleen mod = lysosomal alpha-glucosidase (human) modulation | human spleen homogenate, 4-MU-alpha-glucoside fluorescence | Potency, µM (series often up to 79.9 µM), for inactives: top-dose activity change, negative = inhibition, usual class: inhibitors | actives 0.006% (n = 240,000);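 also: 0% = enzyme with vehicle and -100% = no enzyme basal signal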
#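 Human spleen homogenate (1 ug) incubated with compounds and 1 mM 4-methylumbelliferyl-alpha-D-glucopyranoside in pH 5.0 citrate/phosphate buffer, 37 C, 40 min. Stopped at pH 10; 4-MU fluorescence (Ex 365/Em 440 nm); AC50 by Hill fit.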
# Starred values were filed as active, the others as inactive; ? = inconclusive; . = not tested or not shown; & = joins results of further samples; ! = repeats disagree; [ ] = remark or other dose. Unless noted, calls follow the shape of the dose curve; as a rule, active = well fitted curve in the direction sought with a large enough effect; inconclusive = small, poorly fitted or top-dose-only effect, or another doubt; inactive = no such curve, though single readings can be large; an effect the other way counts as inactive or inconclusive. Potency is read from the fitted curve at half-maximal effect. A portion of the library (hit frequency here may not be typical).
# Start of the data: the first 2 records (preview)
# Order of values – GAA spleen mod | GAA glycogen | JMJD2E inh | SMN2 splice up | GAA inhib | GoLoco inh red | GLA spleen mod
[1] Cc1ccc(S(=O)(=O)NNC(=O)C2Cc3c(ccc4ccccc34)O2)cc1 (stereo not given)
  -5% | 5% | 3% | -37%[inhibitor] | -1% | 8% | 2%
[2] COc1ccc(-n2c(C)cc(-c3cn4cccc(C)c4n3)c2C)cc1
  -14% | -4% | -100% | -18% | -2% | 25% | -14%

# Main list, previewed entries included:
# Order of values – GAA spleen mod | GAA glycogen | JMJD2E inh | SMN2 splice up | GAA inhib | GoLoco inh red | GLA spleen mod
[1] Cc1ccc(S(=O)(=O)NNC(=O)C2Cc3c(ccc4ccccc34)O2)cc1 (stereo not given)
  -5% | 5% | 3% | -37%[inhibitor] | -1% | 8% | 2%
[2] COc1ccc(-n2c(C)cc(-c3cn4cccc(C)c4n3)c2C)cc1
  -14% | -4% | -100% | -18% | -2% | 25% | -14%
[3] Cn1nc(-c2ccccc2)c(-c2nc(-c3ccc(Cl)cc3)no2)c1Cl
  1% | -9% | -1% | -30% | 4% | 2% | 1%
[4] Cc1c(NC(=O)CN2C(=O)c3ccccc3S2(=O)=O)c(=O)n(-c2ccccc2)n1C
  1% | 5% | 22% | 8% | 4% | -1% | 0%
[5] NS(=O)(=O)c1ccc(CCNC(=O)CCCCCn2c(=S)[nH]c3ccc(Br)cc3c2=O)cc1
  1% | 7% | 3% | -11% | 0% | 6% | 0%
[6] CC(C)(C)c1nnc2sc(SCC(=O)c3cccs3)nn2c1=O
  -15% | -8% | 4% | -7% | 0% | 11% | 2%
[7] CN(C)c1nc(OCCNC(=O)COc2ccccc2Cl)nc(N(C)C)n1
  5% | -2% | -7% | -60%[inhibitor] | 2% | -10% | 1%
[8] COc1cccc(C2CC(c3ccc(Cl)cc3)n3nc(N)nc3N2)c1 (stereo not given)
  -4% | 8% | -4% | 16% | ? | -5% | -9%
[9] CC(C)(C)OC(=O)C(C)(C)Sc1nnc(N)s1
  6% | -10% | -6% | . | 0% | -2% | 8%
[10] O=C(NCc1cccnc1)NC(C(F)(F)F)C(F)(F)F
  5% | 10% | 5% | . | -1% | . | 13%
[11] CN1/C(=C\C=Nc2cc(S(=O)(=O)N3CCOCC3)ccc2N2CCOCC2)C(C)(C)c2ccccc21
  3% | -7% | -16% | 3% | ? | 7% | 2%
[12] CCn1c(=O)cc(O)c2ccccc21
  3% | -5% | ? | . | -2% | . | 8%
[13] COc1ccc(CNc2ncnc3ccc(-c4cccnc4)cc23)c(OC)c1
  2% | . | . | . | . | 5% | 5%
[14] O=C(CO/N=C/c1ccc(OC(F)F)cc1)NCc1ccc(F)cc1
  -4% | 3% | 9% | -33%[inhibitor] | -2% | 6% | 3%
[15] CCOC(=O)c1cn(CC(=O)Nc2ccc(C(C)C)cc2)nn1
  -1% | -19% | 8% | -10% | -8% | 4% | 13%

# Three compounds from above, limited to GAA spleen mod:
nr	canonical_smiles	GAA spleen mod
2	COc1ccc(-n2c(C)cc(-c3cn4cccc(C)c4n3)c2C)cc1	-14%
11	CN1/C(=C\C=Nc2cc(S(=O)(=O)N3CCOCC3)ccc2N2CCOCC2)C(C)(C)c2ccccc21	3%
13	COc1ccc(CNc2ncnc3ccc(-c4cccnc4)cc23)c(OC)c1	2%

# Remaining list, next part
# Order of values – GAA spleen mod | GAA glycogen | JMJD2E inh | SMN2 splice up | GAA inhib | GoLoco inh red | GLA spleen mod
[16] ONC(=Nc1ccc(Cl)cc1)c1ccc(Cl)cc1
  -1% | -5% | 14% | -10% | -1% | -2% | 4%
[17] Cc1ccc(S(=O)(=O)N2CCC(=O)N(CCOC(=O)Nc3ccc(F)cc3)CC2)cc1
  -3% | 0% | -1% | -37%[inhibitor] | -8% | 5% | 2%
[18] O=C(CCc1ccccc1)NC1CCSC1=O (stereo not given)
  11% | 7% | 7% | 11% | -2% | -8% | 13%
[19] Cc1ccc(N(CC(=O)NN=C2CCN(C)CC2)S(=O)(=O)c2ccccc2)c(C)c1
  1% | 5% | -5% | -7%[1.84 µM] | 8% | -5% | 9%
[20] C[C@@](Cc1ccc(O)c(O)c1)(NN)C(=O)O
  2%&-3%&-1%&0% | -27% | 3.5µM*! | -31%&-11%[inhibitor] | 2%[15.4 µM] | -13%&-1%&-7%&-20% | 4%&2%&3%&-12%
[21] Cc1nc(=O)c(-c2ccccc2)c(C)n1CCCCCC(=O)O
  3% | 8% | 6% | 10% | 2% | 1% | -17%
[22] CCOC(=O)CN1C(=O)Nc2ccc(Br)cc2C1c1ccccc1 (stereo not given)
  -9% | -1% | 0% | -12% | -1% | -18% | 2%
[23] COc1cccc(/C=N/N2CCOCC2)c1O
  -4% | 0% | 1% | . | 3% | . | -1%
[24] CC(C)c1ccc(C(=O)N(c2ccccn2)C(C)c2ccco2)cc1 (stereo not given)
  -6% | 5% | -4% | . | 5% | . | -4%
[25] O=C(CSc1nnc(CNc2ccc(F)cc2)n1Cc1ccco1)NC1CC1
  1% | 8% | -4% | -5% | -27% | -7% | -1%
[26] Cc1ccc(-n2c(SCC(=O)NCCN3C(=O)CSC3=O)nnc2-c2ccccc2)cc1C
  -22% | -5% | -3% | -8% | -9% | 6% | 20%
[27] CCCNC(=O)N1CCC(C(=O)c2cccc(F)c2)CC1
  -8% | 2% | 3% | -4% | 2% | 0% | 5%
[28] CN(C)S(=O)(=O)c1cccc(NC(=O)COC(=O)c2cccc(S(=O)(=O)N3CCc4ccccc4C3)c2)c1
  -13% | -4% | 3% | -4% | 0% | 0% | -21%
[29] COc1cc(C(=O)NCCOc2cccc3cccnc23)cc(OC)c1OC
  -13% | 7% | -22% | -18% | 5% | -13% | 2%
[30] OC(COCc1ccco1)CN1CCN(c2ccccc2)CC1 (stereo not given)
  5% | 7% | ? | 9% | 7% | 2% | -6%

# Rewritten as tab-separated lines: 7 of the compounds above
No.	SMILES	GAA spleen mod	GAA glycogen	JMJD2E inh	SMN2 splice up	GAA inhib	GoLoco inh red	GLA spleen mod
21	Cc1nc(=O)c(-c2ccccc2)c(C)n1CCCCCC(=O)O	3%	8%	6%	10%	2%	1%	-17%
22	CCOC(=O)CN1C(=O)Nc2ccc(Br)cc2C1c1ccccc1 (stereo not given)	-9%	-1%	0%	-12%	-1%	-18%	2%
23	COc1cccc(/C=N/N2CCOCC2)c1O	-4%	0%	1%	.	3%	.	-1%
24	CC(C)c1ccc(C(=O)N(c2ccccn2)C(C)c2ccco2)cc1 (stereo not given)	-6%	5%	-4%	.	5%	.	-4%
25	O=C(CSc1nnc(CNc2ccc(F)cc2)n1Cc1ccco1)NC1CC1	1%	8%	-4%	-5%	-27%	-7%	-1%
26	Cc1ccc(-n2c(SCC(=O)NCCN3C(=O)CSC3=O)nnc2-c2ccccc2)cc1C	-22%	-5%	-3%	-8%	-9%	6%	20%
27	CCCNC(=O)N1CCC(C(=O)c2cccc(F)c2)CC1	-8%	2%	3%	-4%	2%	0%	5%

# Following part:
# Order of values – GAA spleen mod | GAA glycogen | JMJD2E inh | SMN2 splice up | GAA inhib | GoLoco inh red | GLA spleen mod
[31] C=CCNS(=O)(=O)c1cccc2cc(C(=O)O)c(O)cc12
  -4% | -3% | ? | 6% | 0% | -5% | 8%
[32] CCC(C)(C)C(=O)O[C@@H]1C[C@@H](C)C=C2C=C[C@H](C)[C@H](CC[C@@H]3C[C@@H](O)CC(=O)O3)[C@H]21
  -9% | . | -21% | . | . | -2% | -15%
[33] CC1=C(C(=O)OC(C)C)C(C)NC(=O)N1 (stereo not given)
  -3% | 2% | 10% | . | -13% | 2% | -3%
[34] Cn1c(SCC(=O)c2ccccc2)nnc1-c1ccc(O)cc1
  0% | -11% | -7% | 7% | -4% | -18% | 0%
[35] COCCNC(=O)c1cc(-c2cccs2)on1
  -11% | 5% | -11% | 17% | -4% | 4% | -13%
[36] N#C/C(=C\c1ccc(Cl)cc1)C(=O)Nc1cccnc1
  2% | -3% | 4% | . | 1%[15.4 µM] | 3% | 1%
[37] COC(=O)c1cn(NC(=O)C2CCC(C)CC2)c(=O)c2ccccc12 (stereo not given)
  -11% | 9% | 1% | 28% | 11% | 4% | 4%
[38] CC(NC(=O)COc1ccc(-c2nnco2)cc1)c1ccc(Cl)cc1Cl (stereo not given)
  -8% | 3% | -6% | . | ? | . | -3%
[39] COc1cc(N/N=C(\C)c2ccc(N)cc2)nc(-c2ccccc2)n1
  3% | ? | ? | 9% | -4% | -8% | -3%
[40] O=c1c(C=Nc2ccc(Cl)cc2)c[nH]n1-c1cccc(Cl)n1
  -3% | 2% | 4% | -8% | 5% | 40%[activator] | -2%
[41] CC(=O)Nc1cc(C(C)C)c(O)c(C(C)C)c1
  -6% | 11µM* | 0% | -21% | -8% | -1% | -1%
[42] CCC(C)C(NC(=O)c1ccccc1NC(=O)c1ccccc1)C(=O)N1CCOCC1 (stereo not given)
  -3% | 2% | -10% | 6% | 0% | 3% | 10%
[43] O=C(CN1CCN(Cc2ccccc2F)C1=O)NCCc1ccc(Cl)cc1
  4% | 10% | -2% | -24% | -6% | 7% | -2%
[44] O=C(Nc1nc2ccc([N+](=O)[O-])cc2s1)c1ccc(S(=O)(=O)N2CCCc3ccccc32)cc1
  3% | -13% | 4% | -65%[inhibitor] | 14% | 17% | 2%
[45] Cn1c(CCNC(=O)c2ccccc2F)nnc1SCC(=O)Nc1ccccc1F
  -5% | 1% | -4% | 1% | 4% | 9% | 10%

# Next section
# Order of values – GAA spleen mod | GAA glycogen | JMJD2E inh | SMN2 splice up | GAA inhib | GoLoco inh red | GLA spleen mod
[46] N#C/C(C(=O)N1CCOCC1)=C1/SC(Cc2ccccc2)C(=O)N1c1ccccc1 (stereo not given)
  2% | 1% | -3% | -3% | -1% | 2% | -9%
[47] COc1ccc(Nc2cccc(Cl)c2)c(C(=O)O)c1
  -3% | 11% | -3% | ? | -9% | -2% | 2%
[48] CCOc1ccc(N2CC(O)=C(c3ccccc3)C2=N)cc1
  0% | 8% | 5% | -7% | 5% | -2% | -11%
[49] O=C(CSc1nnc(Cn2c(=O)sc3ccccc32)n1CCc1ccccc1)N1CCCC1
  -7% | 2% | 8% | 23% | -17% | 8% | 2%
[50] Cc1csc(NC(=O)c2c(O)c3cccc4c3n(c2=O)CCC4)n1
  3% | 3% | 3% | 1% | 0% | -3% | -4%
[51] COC(=O)c1cc(-c2cccc(OC)c2)on1
  2% | -3% | 2% | -11% | -3% | -10% | 4%
[52] Cc1ccc(C(=O)OCC(=O)c2ccc[nH]2)s1
  6% | 2% | 13% | 19% | -3% | 10% | -1%
[53] CCC(C)(C(=O)NC1CCCCC1)N(C(=O)C1CCC(=O)N1)c1ccc(C)cc1 (stereo not given)
  -17% | 4% | -5% | . | -5% | 9% | -19%
